# Screening results (PubChem)
# YopH inh = YopH (Yersinia) phosphatase inhibition; fluorescence Ex485/Em525; inhibition, %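 (about 10 µM by stock and volumes)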; hit rate 0.16% among 140,000; AID 898;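 active means inhibition of 50% or more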;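 further: controls were vehicle for no effect and minimum signal wells for full effect; inactives centre near -20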
# Arbovirus anti = blocks arbovirus infection. inhibition, % at 10 µM. arbovirus infection cell-based antiviral screen. hit rate 0.37% among 200,000;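 active means inhibition from about 30%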;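 further: bluetongue infection of BSR cells; cell survival read as ATP light after 72 h; 0% = infected wells without compound and 100% = uninfected wells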
# Mtb betalactam = beta-lactam sensitization of Mtb H37Rv; M. tuberculosis H37Rv growth with meropenem, percent inhibition; hits of this screen are not shown here; inhibition, % at 25 µM; hit rate 0.27% among 330,000; AID 434955;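 active means about 74% or more and at least 40 points above the plate without the antibiotic, then above 30% in a dose series; inconclusive means first-round hits that could not be retested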;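 further: growth measured after seven days incubation then overnight dye step; 0% = bacteria only wells and 100% = bacteria with antibiotic; twin plates without the antibiotic show which effects depend on it; some results filed as inactive read as strong as hits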
# RecA splice inh = inhibitors of M. tuberculosis RecA intein splicing; P9WHJ3; cell-free RecA intein splicing, fluorescence; inhibition, %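 (about 9 µM by stock and volumes)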; hit rate 0.75% among 290,000; in the data active means inhibition above about 30%; inconclusive means no clear call, values can overlap the other calls;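 further: 0% = vehicle wells and 100% = reference inhibitor control wells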
# Target sequence (P9WHJ3 whole entry, looked up, canonical isoform): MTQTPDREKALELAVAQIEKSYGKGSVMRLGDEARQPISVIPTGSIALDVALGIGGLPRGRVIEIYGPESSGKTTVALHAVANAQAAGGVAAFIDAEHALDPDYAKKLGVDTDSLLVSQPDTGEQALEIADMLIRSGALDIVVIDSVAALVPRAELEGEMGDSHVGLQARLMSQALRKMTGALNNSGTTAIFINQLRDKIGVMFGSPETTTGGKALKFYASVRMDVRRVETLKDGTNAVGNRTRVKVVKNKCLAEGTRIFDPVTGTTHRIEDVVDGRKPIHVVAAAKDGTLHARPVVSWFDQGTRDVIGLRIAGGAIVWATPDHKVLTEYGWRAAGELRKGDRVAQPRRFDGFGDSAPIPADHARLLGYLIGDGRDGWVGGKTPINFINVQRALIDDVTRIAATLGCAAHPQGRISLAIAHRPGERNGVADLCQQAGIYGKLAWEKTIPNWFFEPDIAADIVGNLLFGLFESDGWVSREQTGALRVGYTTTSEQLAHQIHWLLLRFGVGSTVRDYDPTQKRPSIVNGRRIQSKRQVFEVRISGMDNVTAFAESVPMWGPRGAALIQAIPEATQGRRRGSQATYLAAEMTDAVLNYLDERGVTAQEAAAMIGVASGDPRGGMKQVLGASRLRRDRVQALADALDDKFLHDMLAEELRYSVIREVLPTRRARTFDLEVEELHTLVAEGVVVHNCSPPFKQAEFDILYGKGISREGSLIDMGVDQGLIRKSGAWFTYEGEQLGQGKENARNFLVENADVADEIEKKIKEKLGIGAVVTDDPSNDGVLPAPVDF
# Mtb H37Rv = M. tuberculosis H37Rv growth inhibitors, H37Rv strain (AID 1626); hit rate 0.95% among 220,000; M. tuberculosis H37Rv growth inhibition; higher % means a stronger effect; one-dose inhibition, % at 10 µM; IC50 in µM for titrated hits;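 active means confirmed in a dose series; inconclusive means inhibition above 80% but not taken into the dose series; inactive means below 80% or under 30% at every dose of the series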;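 further: bacteria incubated seven days before Alamar blue readout; 0% = bacteria only wells and 100% = bacteria with antibiotic wells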
# Arbovirus anti repeat = further read-out of Arbovirus anti, marked with its call; inhibition, %; measured here: 10K subset replicate screen; many hits read low in the repeat;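 first of two repeat runs on a subset; 0% = infected and 100% = uninfected wells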
# An asterisk follows results filed as active; ? = inconclusive; . = no result given. Only part of the results is shown; count on the stated rates, not on these rows.
SMILES,YopH inh,Arbovirus anti,Mtb betalactam,RecA splice inh,Mtb H37Rv,others
CN(C)CCOc1cccc(Cl)c1,-1.7,-2.8,-0.8,-1.2,-4.1%,
CC1(C)CC(=O)N(Cc2ccccc2)C(=O)C1,-3.5,3.8,-10.6,5.2,-0.7%,
O=C(Cn1[nH]c(=O)c2ccccc2c1=O)Nc1ccc(-c2nnc3n2CCCCC3)cc1,-12.6,10.4,7.8,1.7,-2.0%,
CCC1(C)Cc2ccccc2-c2nc(NN)[nH]c(=O)c21 (stereo unspecified),.,.,-0.3,6.4,.,
CS(=O)(=O)N1CCC(C(=O)N2CCc3ccccc3C2)CC1,6.0,7.8,-1.6,0.9,1.9%,
CCOC(=O)c1ccc(NC(=O)c2ccccc2N(C)S(=O)(=O)c2ccccc2)cc1,-10.9,-2.1,9.8,2.1,-1.9%,
COc1ccc(COC(=O)Nc2cn(C)nc2C(F)(F)F)cc1,.,-1.4,-11.8,-4.5,0.6%,
COc1ccc(-n2c(COc3cccc(C)c3)nnc2SCC(=O)NCc2ccco2)cc1,-18.0,-4.7,-7.3,3.1,-8.6%,
Cc1ccc(C(=O)NCCCNC(=O)c2ccccn2)cc1,.,.,-7.9,0.1,.,
CCn1c(SCC(=O)Nc2ccccc2N2CCCCC2)nc2c1c(=O)n(C)c(=O)n2C,13.3,9.3,-1.9,3.2,1.6%,
COC(=O)c1c(C)[nH]c(O)c1C=Nc1ccc(C(C)C)cc1,-45.9,2.4,96.0,-3.6,0.3%,
CCn1c(SCC(=O)N2CCCC2)nc2c(c1=O)SCC2,.,.,4.9,-0.4,.,
COC(=O)C1=C(c2ccc(S(C)(=O)=O)cc2)C[C@@H]2CC[C@H]1N2C(=O)NCCS(C)=O (stereo partly specified),.,.,-3.4,-0.5,-6.5%,
CC(=O)NS(=O)(=O)c1ccc2c(c1)C(=O)c1cc(S(=O)(=O)NC(C)=O)ccc1-2,.,.,-11.7,-1.7,.,
CN(C)S(=O)(=O)c1cccc(NC(=O)COC(=O)c2cccc(S(=O)(=O)N3CCc4ccccc4C3)c2)c1,-22.3,5.8,4.8,5.5,-0.1%,
COC(=O)C1=C(C)N(c2ccc(C(=O)OC)cc2)C(=O)C1,-17.4,-0.9,5.2,0.3,-8.4%,
O=c1[nH]c(=S)n(-c2ccc(Cl)cc2)c(O)c1C=Nc1ccc(N2CCOCC2)cc1,.,-19.8,-7.6,-1.8,-5.3%,
O=C(NNC1CC(=O)N(c2ccc3c(c2)OCCO3)C1=O)c1ccc(Cl)cc1 (stereo unspecified),.,-4.0,-2.0,1.1,-1.7%,
COc1ccc(OC)c(NS(=O)(=O)c2cccc3cccnc23)c1,.,.,-0.6,-2.3,.,
CCCCC(=O)Nc1cccn2ncnc12,.,23.0,-1.8,-2.1,7.7%,

# Part of the list above in order of length of the SMILES, high to low.
SMILES,YopH inh,Arbovirus anti,Mtb betalactam,RecA splice inh,Mtb H37Rv,others
CN(C)S(=O)(=O)c1cccc(NC(=O)COC(=O)c2cccc(S(=O)(=O)N3CCc4ccccc4C3)c2)c1,-22.3,5.8,4.8,5.5,-0.1%,
CS(=O)(=O)N1CCC(C(=O)N2CCc3ccccc3C2)CC1,6.0,7.8,-1.6,0.9,1.9%,
CCC1(C)Cc2ccccc2-c2nc(NN)[nH]c(=O)c21 (stereo unspecified),.,.,-0.3,6.4,.,

# Following part.
SMILES,YopH inh,Arbovirus anti,Mtb betalactam,RecA splice inh,Mtb H37Rv,others
Cc1cnc(C(=O)OCc2c(C)cc(C(C)(C)C)cc2C)cn1,.,.,4.2,-1.3,.,
c1csc(-c2nnc(N3CCCCCC3)c3ccccc23)c1,-25.2,9.3,0.0,14.4,23.8%,
O=C(Cn1nnc(-c2ccccc2NC(=O)c2cccs2)n1)Nc1ccccc1,-27.2,-17.8,-7.6,-1.7,1.6%,
COc1cc(NC(=O)C2C3CCC(O3)C2C(=O)O)cc(OC)c1 (stereo unspecified),.,.,1.6,-4.0,.,
COc1cc2ccccc2cc1C(=O)Nc1ccc2oc(=O)ccc2c1,.,.,8.0,5.4,.,
O=C(c1cnn2c(C(F)F)cc(-c3ccccc3)nc12)N1CCCCC1c1cccnc1 (stereo unspecified),.,.,-0.4,-19.0,11.7%,
Cc1ccc(Nc2nc(=O)c3cccnc3s2)c(Br)c1,.,.,-6.4,1.4,3.3%,
Cc1ccc(OCCC(=O)OCC(=O)NCc2ccccc2)cc1,.,.,-1.9,0.8,.,
c1ccc2c(c1)CCN(CCCNc1nc3ccccc3n3cnnc13)C2,-32.0,4.6,.,.,-11.8%,Arbovirus anti repeat=0.4
CCOc1cc(C2C(C(=O)OC)=CN(Cc3ccc(Cl)cc3)C=C2C(=O)OC)ccc1O,.,.,-6.3,-0.3,.,
Cc1ccc(C(=O)OCC(=O)Nc2ccc3c(c2)OCO3)cc1S(=O)(=O)N1CCOCC1,-8.2,2.1,-8.3,0.5,-7.0%,
COC(=O)[C@@H]1C[C@@H]2CC[C@@H](O)C[C@@H]2N1Cc1ccc(N2CCN(C)CC2)cc1,.,.,1.8,-1.9,-14.3%,
Cc1ccc(/C=C/C(=O)N2CCC(Cc3ccccc3)CC2)cc1,-15.8,1.2,-9.8,4.8,-0.1%,
CCc1ccc(CN(C(=O)c2cc3ccccc3oc2=O)C2CCS(=O)(=O)C2)cc1 (stereo unspecified),16.0,-2.5,8.3,-0.6,-9.1%,
Cc1cc(C)c(C(=O)NC2CCCc3c2cnn3-c2cccc(C)c2C)o1 (stereo unspecified),.,.,3.3,1.8,.,
CC1CCCN(CCCNC(=O)c2ccc3c(c2)N(Cc2ccc(F)cc2)C(=O)c2ccccc2S3=O)C1 (stereo unspecified),.,.,-8.5,1.3,.,
COc1ccc(C(=O)NC(=S)NNC(=O)c2cccnc2)cc1,.,.,12.3,-2.0,.,
CC(=O)NS(=O)(=O)c1ccc(NC(=O)c2ccc(-n3nc(C)cc3C)cc2)cc1,.,6.1,-0.7,-0.6,-0.2%,
CCOC(=O)N1CCN(C(=O)Nc2ccccc2Cl)CC1,-9.2,6.8,-5.5,0.3,-7.4%,
CCc1nnc(N/N=C/c2cc(C)c(C)cc2C)n1N,.,.,89.3,-5.5,.,
COC(=O)c1ccc(CSc2nc3cc(Cl)ccc3o2)cc1,4.5,8.6,91.1,1.7,76.3%,
Cn1c(=O)c2c(nc(NCC3CCCC(CN)C3)n2Cc2ccc(Cl)cc2Cl)n(C)c1=O (stereo unspecified),.,.,?,2.6,.,
Cc1cc(NC(=O)Cn2ccc([N+](=O)[O-])n2)no1,.,4.5,-10.2,0.6,0.5%,
Cc1ccc(-n2c(SCC(=O)NCCN3C(=O)CSC3=O)nnc2-c2ccccc2)cc1C,-11.4,-2.1,3.1,4.6,-2.3%,
CCOC(=O)CC1=C(C#N)C(c2cccnc2)C(C(=O)OCC)=C(N)O1 (stereo unspecified),-47.6,3.2,-3.3,0.1,-0.7%,Arbovirus anti repeat=-0.4
COc1ccc(CCC(=O)Nc2cc3c4c(c2)CCC(=O)N4CCC3)cc1,.,.,-0.1,0.7,.,
O=C(O)c1cccc(NC(=S)N/N=C/c2cccc(O)c2)c1,.,12.6,-1.3,-2.9,-0.4%,
CCCCNC(=S)N1CCN(C)CC1,.,-4.5,2.6,-1.7,1.6%,
COc1ccc(NC(=O)NC2CCCc3ccccc32)cc1 (stereo unspecified),.,.,-0.4,0.9,.,

# Entries above that contain four or more nitrogen atoms (15):
SMILES,YopH inh,Arbovirus anti,Mtb betalactam,RecA splice inh,Mtb H37Rv,others
O=C(Cn1[nH]c(=O)c2ccccc2c1=O)Nc1ccc(-c2nnc3n2CCCCC3)cc1,-12.6,10.4,7.8,1.7,-2.0%,
CCC1(C)Cc2ccccc2-c2nc(NN)[nH]c(=O)c21 (stereo unspecified),.,.,-0.3,6.4,.,
COc1ccc(-n2c(COc3cccc(C)c3)nnc2SCC(=O)NCc2ccco2)cc1,-18.0,-4.7,-7.3,3.1,-8.6%,
CCn1c(SCC(=O)Nc2ccccc2N2CCCCC2)nc2c1c(=O)n(C)c(=O)n2C,13.3,9.3,-1.9,3.2,1.6%,
O=c1[nH]c(=S)n(-c2ccc(Cl)cc2)c(O)c1C=Nc1ccc(N2CCOCC2)cc1,.,-19.8,-7.6,-1.8,-5.3%,
CCCCC(=O)Nc1cccn2ncnc12,.,23.0,-1.8,-2.1,7.7%,
O=C(Cn1nnc(-c2ccccc2NC(=O)c2cccs2)n1)Nc1ccccc1,-27.2,-17.8,-7.6,-1.7,1.6%,
O=C(c1cnn2c(C(F)F)cc(-c3ccccc3)nc12)N1CCCCC1c1cccnc1 (stereo unspecified),.,.,-0.4,-19.0,11.7%,
c1ccc2c(c1)CCN(CCCNc1nc3ccccc3n3cnnc13)C2,-32.0,4.6,.,.,-11.8%,Arbovirus anti repeat=0.4
COc1ccc(C(=O)NC(=S)NNC(=O)c2cccnc2)cc1,.,.,12.3,-2.0,.,
CC(=O)NS(=O)(=O)c1ccc(NC(=O)c2ccc(-n3nc(C)cc3C)cc2)cc1,.,6.1,-0.7,-0.6,-0.2%,
CCc1nnc(N/N=C/c2cc(C)c(C)cc2C)n1N,.,.,89.3,-5.5,.,
Cn1c(=O)c2c(nc(NCC3CCCC(CN)C3)n2Cc2ccc(Cl)cc2Cl)n(C)c1=O (stereo unspecified),.,.,?,2.6,.,
Cc1cc(NC(=O)Cn2ccc([N+](=O)[O-])n2)no1,.,4.5,-10.2,0.6,0.5%,
Cc1ccc(-n2c(SCC(=O)NCCN3C(=O)CSC3=O)nnc2-c2ccccc2)cc1C,-11.4,-2.1,3.1,4.6,-2.3%,
